Assay outcomes as filed in PubChem BioAssay.
UCH37 DUB inh = inhibitors of human UCH37 deubiquitinase, primary screen, biochemical, Ub-AMC cleavage, fluorescence; actives 0.33% (n = 330,000); inhibition, % (no concentration beside the values); Ubiquitin carboxyl-terminal hydrolase isozyme L5 (Homo sapiens), Q9Y5K5; purified proteasome/UCH37;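 active means mean of two replicates above 20%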;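 further: 0% = compound-free wells with enzyme and 100% = wells lacking proteasome; stock transfer was 100 nL into about 20 µL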
Target sequence (Q9Y5K5 whole entry, looked up): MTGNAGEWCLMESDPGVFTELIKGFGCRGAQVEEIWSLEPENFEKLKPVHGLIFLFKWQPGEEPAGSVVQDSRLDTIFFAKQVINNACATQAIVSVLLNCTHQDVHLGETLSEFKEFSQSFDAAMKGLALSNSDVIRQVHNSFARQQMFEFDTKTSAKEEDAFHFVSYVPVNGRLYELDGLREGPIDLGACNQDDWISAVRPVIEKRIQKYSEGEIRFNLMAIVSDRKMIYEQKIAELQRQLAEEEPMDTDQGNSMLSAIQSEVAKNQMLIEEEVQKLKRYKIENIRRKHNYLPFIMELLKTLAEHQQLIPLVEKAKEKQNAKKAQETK
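system = Proteasome-associated human UCH37 deubiquitinase | amount = 0.15 nM proteasome as dispensed | medium = pH 7.4 Tris-HCl (50 mM) with ovalbumin, ATP-MgCl2, DTT | incubation = 30 min preincubation with enzyme, 25 min cleavage at room temperature | detection = AMC fluorescence 355/460 nm | read-out basis = percent inhibition | controls = no-proteasome and no-compound wells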
ALR inh = inhibitors of human ALR sulfhydryl oxidase, primary screen, biochemical, H2O2 detection, HRP-luminol luminescence, single point; purified ALR, DTT oxidation; inhibition, % (no concentration beside the values); actives 3.8% (n = 290,000);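 active means mean and each replicate at 75% or more; inconclusive means only one of the two met; inactive means neither met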;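 further: stock transfer was 7.5 nL into about 7.5 µL; 0% = neutral wells and 100% = wells with inactivated enzyme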
E coli growth = E. coli growth inhibition, primary screen, OD600; Escherichia coli growth, 23 h; stronger effect = lower value; OD600 absorbance (test concentration not listed); actives 0.21% (n = 330,000); AID 1053175, 2014;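 active means OD600 absorbance below the run mean of sample wells minus 3.6 SD, in any replicate, cut at about 0.56 in these data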;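 further: stock transfer was 300 nL into about 60 µL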
FGF22 binding = binders of human FGF22 protein, primary screen, FGF22 synaptogenesis inhibitor project, biophysical, thermal shift, single point. Fibroblast growth factor 22 (Homo sapiens), Q9HCT0. actives 1.5% (n = 340,000). recombinant FGF22 thermal shift, SYPRO orange fluorescence; percent of sucrose octasulfate shift, DMSO zero. calls only at 9.99 µM;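 active means melting point raised past a set limit in the mean and every replicate; inconclusive means no clear call; three in four hits are not shown here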
Target sequence (Q9HCT0 whole entry, looked up): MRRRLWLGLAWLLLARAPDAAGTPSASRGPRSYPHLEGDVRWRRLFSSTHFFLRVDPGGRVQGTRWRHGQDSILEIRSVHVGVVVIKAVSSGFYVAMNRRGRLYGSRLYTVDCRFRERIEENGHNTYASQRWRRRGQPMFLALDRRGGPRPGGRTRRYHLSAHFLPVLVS
LANA-H2A inh = blockers of LANA interaction with H2A/H2B – biochemical, FP readout, HTS, primary screen | Protein LANA1 (Human herpesvirus 8 type P (isolate GK18)), Q9QR71 | cell-free LANA-H2A/H2B peptide, fluorescence polarization | inhibition, % (no concentration beside the values) | actives 0.6% (n = 320,000); in the data active means inhibition mostly above about 10%, no sharp cut-off; inactive means mostly below about 6.7%;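 further: stock transfer was 7.5 nL into about 10 µL; 0% = median of vehicle wells and 100% = median of positive control wells; one replicate is shown; the record names a cut of 25% in any replicate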
HNF4A DNA FP = change in binding of human HNF4A to DNA, primary screen, biochemical, fluorescence polarization, FITC-DNA. Hepatocyte nuclear factor 4-alpha (Homo sapiens), P41235. 1 h. activity change, % at 10 µM. actives 0.3% (n = 360,000). AID 1224865, 2016; in the data active means activity change above about 30%, passing the limit was not always enough;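 further: controls were the assay level and a saturating level of protein; the project sought stronger binding though the title names inhibitors; some compounds called inactive have numbers as strong as hits; positive values seem to mean higher polarization but the record does not say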
Beta2AR agonist = beta2AR agonists driving receptor internalization, primary screen, cell-based, FAP fluorogen, flow cytometry | Beta-2 adrenergic receptor (Homo sapiens), P07550 | Am2.2-beta2AR cells; reference of the scale not given here | response, % (no concentration beside the values) | actives 0.43% (n = 340,000) | AID 504454, 2011;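 active means response above a set limit, near 3 SD of response in nonfluorescent compounds, cut at about 42% in these data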;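 further: stock transfer was 100 nL into about 11 µL; a reference agonist was the positive control; negative values mostly stem from fluorescent compounds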
Target sequence (P07550 whole entry, looked up): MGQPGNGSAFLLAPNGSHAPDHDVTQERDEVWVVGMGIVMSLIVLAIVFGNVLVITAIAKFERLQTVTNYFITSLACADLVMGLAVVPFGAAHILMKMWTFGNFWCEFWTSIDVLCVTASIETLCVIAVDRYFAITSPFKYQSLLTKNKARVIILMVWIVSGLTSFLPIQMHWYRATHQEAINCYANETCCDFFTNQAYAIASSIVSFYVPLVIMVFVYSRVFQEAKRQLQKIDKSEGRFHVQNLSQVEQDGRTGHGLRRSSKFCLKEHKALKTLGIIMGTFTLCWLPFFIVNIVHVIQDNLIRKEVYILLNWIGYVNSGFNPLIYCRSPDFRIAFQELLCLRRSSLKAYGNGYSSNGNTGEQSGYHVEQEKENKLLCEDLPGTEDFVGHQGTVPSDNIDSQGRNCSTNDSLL
The depositor's hits bear a star; i = inactive; ? = inconclusive; nt = not tested or not shown. This is a subset; rates above refer to the full screens.

Values run as follows: UCH37 DUB inh | ALR inh | E coli growth | FGF22 binding | LANA-H2A inh | HNF4A DNA FP | Beta2AR agonist
1: CC[C@]12c3[nH]c4ccc(Cl)cc4c3CCN1C(=O)[C@@H](CC(=O)NCCC1=CCCCC1)C[C@@H]2C(=O)N1CCN(C(=O)C2CC2)CC1
 : 5.8 | nt | 0.695 | i | nt | -0.3 | 6.5
2: C#CCOc1ccc(/C=N/NC(=O)c2cccnc2)cc1OCC
 : nt | -2.5 | nt | i | -2.2 | 4.0 | -3.1
3: CCOc1ccc(C(=O)N2CCN(S(=O)(=O)c3ccc4c(c3)OCCO4)CC2)cc1OCC
 : 3.8 | nt | 0.695 | i | nt | -3.3 | 6.0
4: CCn1c(=O)c(C(=O)CN2CCN(S(=O)(=O)c3ccc(C)cc3C)CC2)c(N)n(Cc2ccccc2)c1=O
 : 3.6 | -2.9 | 0.713 | i | -0.8 | 3.8 | 2.4
5: CC(=O)c1cccc(NC(=O)C2CCCN2S(=O)(=O)c2cccc3cccnc23)c1 (centres undefined)
 : 5.7 | 43.2 | 0.727 | i | 1.3 | -3.5 | -3.2
6: CCOc1ccc(-n2c(SCC(N)=O)nnc2-c2cccnc2)cc1
 : 3.7 | -5.9 | 0.66 | i | 0.8 | -0.5 | -4.4
7: O=C(NCCCN1CCCC1=O)c1ccc(NS(=O)(=O)c2ccccc2)cc1
 : 4.8 | -1.1 | 0.689 | nt | -4.0 | 1.6 | -3.5
8: COc1ccccc1C1c2ccc3ccccc3c2Oc2ncn(CCCO)c(=N)c21 (centres undefined)
 : 6.7 | -39.6 | 0.618 | nt | -3.7 | 3.6 | 22.8
9: Cn1cc(C(=O)c2cccc(Cl)c2)cc1C#N
 : -0.6 | -8.6 | 0.695 | i | 5.7 | -2.2 | -3.8
10: CCCCNC(=O)c1onc(CSc2ccc(OC)cc2)c1C(=O)O
 : nt | ? | nt | i | -3.1 | 3.7 | -10.3
11: CCOC(=O)c1ccc(NC(=O)c2n[nH]c(=O)c3ccccc23)cc1
 : -10.0 | 2.4 | 0.705 | i | -6.3 | 2.9 | 4.1
12: O=C(CO/N=C/c1ccc(OC(F)F)cc1)NCc1ccco1
 : nt | 1.3 | nt | nt | 1.5 | 0.0 | 0.7
13: O=[N+]([O-])CC1(n2nc3ccccc3n2)CCCCC1
 : 2.2 | nt | nt | nt | -0.4 | -3.2 | -0.3
14: NC(=S)Nc1cccc2[nH]ncc12
 : -0.6 | nt | 0.699 | i | 1.5 | 4.3 | 2.6
15: CC(Sc1nnc(-c2ccccc2F)n1C1CC1)C(=O)N1CCCC1 (centres undefined)
 : 5.2 | -6.0 | 0.713 | i | 2.5 | -3.3 | -5.6
16: CC(=O)Oc1ccc(/C=C2/C(=O)N(c3ccccc3)N=C2C)cc1
 : nt | -156.2 | nt | i | 1.4 | -0.9 | 6.0
17: O=C(COC(=O)[C@H](Cc1ccccc1)NS(=O)(=O)c1ccccc1F)NC1CCCCC1
 : 4.1 | -13.1 | 0.716 | nt | 1.0 | -0.9 | 8.7
18: CCOC(=O)COc1c(C(=O)OC)sc2ncccc12
 : -0.4 | -1.4 | 0.693 | i | 3.2 | 4.7 | 9.0
19: COc1cc(NC(=O)CSc2nccc(C)n2)c(C(=O)O)cc1OC
 : -5.8 | -8.7 | 0.667 | nt | -2.0 | -4.4 | -6.3
20: C#CCNC(=O)c1cccn1-c1ncc(C(F)(F)F)cc1Cl
 : 3.7 | -2.3 | 0.648 | i | 0.7 | -2.5 | -3.9
21: O=C(CN1C(=O)COc2ccccc21)Nc1ccc2c(c1)OCCO2
 : 0.1 | -2.5 | 0.735 | nt | -0.8 | 2.2 | -0.6
22: C#CCOCCOCCOCCNc1nc(N2CCN(C(=O)[C@H]([C@@H](C)CC)n3cc(CCCN=C(N)N)nn3)CC2)nc(N2CCN(C(=O)[C@H](CCCCN)n3cc(CC(C)O)nn3)CC2)n1 (some centres undefined)
 : -2.9 | nt | nt | i | 1.6 | 1.7 | 1.6
23: CCc1ccc2c(CC(=O)NNC(=O)c3ccncc3)coc2c1
 : 1.9 | -2.2 | 0.706 | i | -19.1 | 2.0 | 5.4
24: CC1=CC(=C(C#N)C#N)c2ccccc2N1C
 : nt | 45.8 | nt | nt | 46.2* | -5.7 | -17.1
25: Cc1cc(=O)cc(C)n1-c1ccc(Cl)cc1
 : 1.3 | 26.9 | 0.669 | i | 1.7 | 4.1 | 0.4
26: Cc1nnc2ccc(-c3cccc(NS(=O)(=O)c4cc(F)ccc4F)c3)nn12
 : 0.7 | -7.3 | 0.62 | i | -1.6 | -0.8 | 16.7
27: COc1ccc(OCC(=O)OCC(=O)NC2CC2)cc1
 : 5.0 | nt | 0.699 | i | -0.5 | 4.5 | 2.7
28: Nn1c(Cc2cccc3ccccc23)nnc1SCC(=O)NCC1CCCO1 (centres undefined)
 : 1.6 | -0.6 | 0.656 | i | -2.4 | 1.9 | -6.0
29: O=S(=O)(c1ccc(Cl)cc1)N1CN(CC2CCCO2)c2nc3ccccc3nc21 (centres undefined)
 : -8.7 | -8.5 | 0.689 | i | 1.9 | 0.0 | -5.5
30: CCOC(=O)N1CCN(C(=O)C(=O)NN)CC1
 : -0.5 | nt | 0.647 | i | -1.1 | 1.4 | 4.3
31: O=C(Cc1ccccc1)Nc1ncnc2c1C(c1ccccc1)c1c(ccc3ccccc13)O2 (centres undefined)
 : 1.0 | -1.5 | 0.712 | i | -1.9 | -0.9 | 6.5
32: CCC(=O)Nc1nnc(S(=O)(=O)N(CC)c2cc(C)cc(C)c2)s1
 : 1.9 | -6.7 | 0.66 | i | -3.7 | 0.3 | -11.7
33: CCC(=O)N1CCc2cc(S(=O)(=O)NCCC(=O)Nc3ccccc3C)ccc21
 : 1.8 | -5.6 | 0.658 | nt | -4.0 | -1.6 | -5.9
34: O=C(NCC(=O)N1CCN(c2ncccn2)CC1)c1ccccc1OC(F)F
 : 1.5 | nt | 0.716 | i | 5.1 | 2.3 | -4.2
35: CCOC(=O)c1[nH]cnc1C(=O)Nc1ccc([N+](=O)[O-])cc1
 : 4.7 | -15.1 | 0.657 | i | 0.3 | -0.8 | 13.5
36: Cc1noc(-c2ccc(C(F)(F)F)cc2)c1NC(=O)Nc1ccc(Cl)cc1
 : 6.3 | 0.8 | 0.636 | i | -0.9 | -0.2 | -0.2
37: CC1CN(c2c3c(nc4ncnn24)CCCC3)CC(C)O1 (centres undefined)
 : 1.7 | -9.6 | 0.703 | nt | -1.1 | 1.8 | -0.1
38: CN(C)c1nc(N)c([N+](=O)[O-])c(NCCO)n1
 : nt | 12.6 | nt | i | 1.8 | -3.9 | 1.9
39: CN(C)N=Nc1nc2c(c(=O)n(C)c(=O)n2C)n1CC1CO1 (centres undefined)
 : 16.0 | 25.0 | 0.655 | i | 3.0 | 0.6 | 0.7
40: COc1ccc(OC)c(Nc2cc3ccccc3c(=O)[nH]2)c1
 : -2.1 | 31.1 | 0.692 | i | 2.8 | 6.8 | -2.0
41: Cc1cc2occ(CC(=O)NC3(C)CCS(=O)(=O)C3)c2cc1C (centres undefined)
 : 0.6 | -1.0 | 0.724 | i | -6.0 | 1.7 | -8.2
42: O=C(N/N=C/c1ccc2c(c1)OCO2)c1cc(-c2ccc(F)cc2)nc2ccccc12
 : nt | -2.0 | nt | i | 1.6 | 3.0 | -14.6
43: NC(=O)NC(CC(=O)NCCc1ccc(S(N)(=O)=O)cc1)c1ccccc1Cl (centres undefined)
 : 2.4 | -5.0 | 0.663 | i | 0.3 | 3.2 | -0.4
44: CCN(CC)C(=O)Oc1ccc2cc(Br)ccc2c1
 : 1.7 | -7.4 | 0.686 | nt | 2.4 | -3.4 | -4.4
45: CC(=O)c1ccc(N2C(=O)[C@@H]3[C@H](C2=O)[C@H]2c4ccccc4C=NN2[C@@H]3C(C)=O)cc1
 : 0.6 | 2.1 | 0.708 | i | 5.1 | 0.0 | -2.8
46: COCCN(C(=O)CNC(=O)c1cccs1)C(C(=O)NC1CCCCC1)c1ccco1 (centres undefined)
 : 3.4 | 0.2 | 0.724 | nt | -2.7 | -2.3 | -28.2
47: COc1ccc(C)cc1NC(=O)c1nn(C)cc1Br
 : 2.0 | 2.4 | 0.616 | i | -0.8 | 2.5 | -7.0
48: CN(C)CCn1c2c(c(SCC(=O)Nc3cccc(C(F)(F)F)c3)nc1=O)CCCC2
 : 4.1 | 97.7* | 0.624 | i | -1.7 | 0.5 | -1.7
49: CC1CCCN(C(=O)COC(=O)c2n[nH]c3ccccc23)C1 (centres undefined)
 : -0.5 | -4.0 | 0.683 | nt | 1.9 | -1.2 | -3.5
50: COc1ccc(NC(=O)CCN2C(=O)c3ccccc3C2=O)c(OC)c1
 : 6.2 | nt | 0.602 | i | -2.3 | 0.5 | -0.8

Going on with the list.
Values run as follows: UCH37 DUB inh | ALR inh | E coli growth | FGF22 binding | LANA-H2A inh | HNF4A DNA FP | Beta2AR agonist
51: CCN1CCS/C1=C\C=C\C1=[N+](CC)CCS1
 : 16.5 | nt | 0.696 | i | nt | 13.4 | 0.1
52: Cc1ccc(C)c(OCC(=O)N2CCN(C(=O)c3ccco3)CC2)c1
 : 0.5 | -4.3 | 0.688 | i | -5.3 | -1.7 | -14.8
53: O=C(c1ccc(S(=O)(=O)NCc2ccco2)cc1)N1CCCC1
 : 1.8 | -5.6 | 0.694 | i | 0.7 | 1.9 | -0.4
54: CCn1c(SCC(=O)Nc2cccc(NC(C)=O)c2)nc2c([nH]c3ccccc32)c1=O
 : -0.3 | 2.5 | 0.719 | i | -11.0 | 0.2 | -6.8
55: COc1cccc(N/C(N)=N/c2nc(C(F)(F)F)cc(=O)[nH]2)c1
 : 4.3 | nt | 0.698 | nt | nt | 1.3 | -1.2
56: Fc1ccccc1NC(=S)N1CCN(Cc2ccc3c(c2)OCO3)CC1
 : 2.3 | -3.0 | 0.694 | i | -1.5 | 0.7 | 5.4
57: CC(=O)N1CCC(N(CCCOC(C)C)C(=O)Nc2ccc(Cl)cc2)CC1
 : 4.4 | -2.2 | 0.723 | i | -4.0 | -2.6 | 11.0
58: O=C(Nc1nc(-c2ccc(-c3ccccc3)cc2)cs1)c1cnccn1
 : -1.4 | -8.2 | 0.729 | i | 0.5 | -2.6 | 1.8
59: CCCCC1(C)Nc2ccccc2-c2nc3ccccc3n21 (centres undefined)
 : i | 46.0 | 0.729 | nt | -4.1 | -1.8 | 6.1
60: CC(=O)c1cccc(NC(=O)CN(c2ccccc2)S(C)(=O)=O)c1
 : 2.1 | -0.3 | 0.724 | nt | 3.6 | 4.3 | -1.2
61: CC(C)(C)N1OC2CC1c1nc3ccccc3n1C2 (centres undefined)
 : 0.6 | -0.4 | 0.671 | i | -0.6 | 0.7 | -3.5
62: COc1ccc(C2C(C(=O)c3ccc(C)o3)=C(O)C(=O)N2Cc2ccco2)cc1OC (centres undefined)
 : 5.2 | -6.7 | 0.723 | i | -7.4 | 1.2 | -3.8
63: COc1ccc(-n2nnnc2-c2cccnc2)cc1
 : 2.1 | -1.6 | 0.676 | nt | -5.6 | -1.4 | -12.7
64: CCCC(=O)Nc1cc(Cl)ccc1C
 : 3.0 | nt | 0.686 | i | -0.9 | -0.1 | 3.7
65: Cc1cc(NC(=O)CSc2nc3c(C)cccc3cc2C)no1
 : -0.3 | -0.9 | 0.709 | i | -2.2 | -0.2 | 4.9
66: CC1CCCC(C)N1C(=O)Cn1c(SCC(=O)NCc2ccc3c(c2)OCO3)nc2ccccc21 (centres undefined)
 : 1.8 | 0.5 | 0.695 | nt | -3.5 | -3.5 | -0.4
